High-throughput results: PubChem BioAssay, several laboratories
Calb FLC – affects C. albicans growth with fluconazole; C. albicans CaCi-2 (fluconazole-resistant clinical isolate) + fluconazole, Alamar Blue growth, 48 h; 300,000 tested, 0.57% active; AID 1979; growth inhibition, % (concentration not given with the values);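 active = most replicates above 75%; inconclusive = exactly half above 75%; inactive = most below 75%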;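 also: all wells also contain fluconazole at 8 µg/ml as a sub-toxic cotreatment; 0% = median of DMSO wells and 100% = median of geldanamycin control wells; wells of about 8 µL received 7.5 nL stock; the first replicate is given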
Beta cell apopt – beta cell apoptosis inhibition; INS-1E cytokine-induced death, ATP luminescence, 48 h; percent of positive-control rescue, neutral wells zero; protection from apoptosis, % (test concentration not listed); 300,000 tested, 0.8% active;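 active = all replicates at 75% or more, or half of them and the mean; inconclusive = half reach 75% but not the mean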;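 also: 0% = cytokine-treated negative control wells and 100% = positive control rescue; higher means more ATP so stronger rescue from cytokine killing; wells of about 40 µL received 100 nL stock; the first replicate is given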
Vif A3G – inhibitors of Vif binding to APOBEC3G peptide, primary screen, biochemical, TR-FRET, GST-Vif 1-94, biotin-A3G peptide, dose response retest (AID 1117319) | TR-FRET GST-Vif / biotin-A3G peptide binding; higher % means a stronger effect; test concentration not given here; strong numbers were not always called active | 260,000 tested, 0.57% active | inhibition, %, or IC50 in µM where a hit was titrated;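 active = above the screen mean plus three standard deviations and confirmed in dose response; inconclusive = results disagree or hit not tested in dose response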;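 also: Vif residues 1-94 fused to GST binding biotinylated APOBEC3G peptide 110-148; 0% = full assay without inhibitor and 100% = GST in place of GST-Vif; retest series ran down from 100 µM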
MLL AF4-AF9 inh – MLL-AF4/AF9 protein interaction inhibition. inhibition, % at 10 µM. P42568. AlphaScreen, biotin-AF4 peptide binding to FLAG-AF9. 350,000 tested, 0.47% active;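 active = every replicate reaching a set inhibition limit, whatever the replicate mean, cut at about 25% in these data; inconclusive = mean inhibition reaches that limit but some replicates miss it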;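 also: 0% = plate neutral control median and 100% = total signal loss; the record names both 10 and 1 µM as test concentration; the first replicate is given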
Target sequence (P42568 whole entry, looked up): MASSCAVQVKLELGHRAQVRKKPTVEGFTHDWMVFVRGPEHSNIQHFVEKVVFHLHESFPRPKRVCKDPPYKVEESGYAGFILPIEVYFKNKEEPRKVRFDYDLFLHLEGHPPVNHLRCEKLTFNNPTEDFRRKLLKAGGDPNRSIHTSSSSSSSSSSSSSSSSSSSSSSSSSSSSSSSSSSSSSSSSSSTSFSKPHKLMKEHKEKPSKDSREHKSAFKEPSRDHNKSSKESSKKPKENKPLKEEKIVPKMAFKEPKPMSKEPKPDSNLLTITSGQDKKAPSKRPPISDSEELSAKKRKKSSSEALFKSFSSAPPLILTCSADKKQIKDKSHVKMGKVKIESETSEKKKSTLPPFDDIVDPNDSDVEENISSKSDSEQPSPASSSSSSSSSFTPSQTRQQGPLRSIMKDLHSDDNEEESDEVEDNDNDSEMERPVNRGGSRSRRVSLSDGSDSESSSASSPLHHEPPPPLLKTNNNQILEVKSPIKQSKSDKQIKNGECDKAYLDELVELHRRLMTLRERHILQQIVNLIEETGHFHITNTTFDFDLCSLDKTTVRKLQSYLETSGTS
Bfl-1 A1 inh – inhibitors of the anti-apoptotic protein A1, read as caspase activation | MEF A1-2A-BIM cells, Caspase-Glo 3/7 luminescence, 3 h; percent of clofoctol response, vehicle zero | caspase activation, % (no concentration beside the values) | 330,000 tested, 0.066% active | AID 2462;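 active = over half of replicate activation scores above 10%, or exactly half above 10 with the replicate mean above 10; inconclusive = replicate mean below 10 yet half the replicates above 10; inactive = over half of replicates below 10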;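 also: wells of about 30 µL received 50 nL stock; many hits fall short of the cut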
rRNA inh HTS – inhibitors of bacterial rRNA selective over humanized ribosomes; E. coli WT GFP vs humanized-ribosome RFP mutants, fluorescence, 24 h; hits give low values; DMSO median 0, no signal -100; GFP signal change (wild-type ribosome), % (no concentration beside the values); AID 720706; 350,000 tested, 1.6% active;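 active = significant combined selectivity score with lowered wild-type GFP, culture density cut under 30%, mutant RFP and density less affected; inactive = any of these conditions unmet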; also: one replicate is shown; some compounds called inactive have numbers as strong as hits
T cruzi inh – blocks replication of Trypanosoma cruzi | T. cruzi beta-gal in NIH3T3, luminescence, 90 h | inhibition, % (test concentration not listed) | 300,000 tested, 1.4% active | AID 1885;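 active = mean inhibition across valid replicates above about 55%, limit read from the data; inconclusive = mean below that limit but half or more replicates reach it; inactive = mean below it, under half of replicates reach it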;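 also: signal also drops with host cell toxicity which is not excluded here; 0% = plate median of DMSO wells and 100% = zero luminescence signal; higher percent means less beta-gal luminescence so fewer parasites; stock transfer was 50 nL into about 50 µL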
RanGTP-Impb inh – inhibitors of RanGTP-importin-beta interaction, primary screen, biochemical, FRET, CFP-Ran, YFP-importin-beta, homogeneous; inhibition, % (test concentration not listed); AID 2216; cell-free CFP-Ran/YFP-importin-beta FRET ratio; 300,000 tested, 1.1% active;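 active = most replicates above 15%; inconclusive = exactly half above 15%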;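 also: 0% = DMSO wells and 100% = Ran loaded with GDP instead of GTP; wells of about 40 µL received 100 nL stock; the first replicate is given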
rRNA inh HTS OD600 – further read-out of rRNA inh HTS, marked with its call; OD600 change, %; measured here: OD600 growth;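 optical density of the mix in the first replicate; 0 = DMSO median and -100 = no signal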
rRNA inh HTS RFP – also measured in rRNA inh HTS; calls as there; RFP signal change, %; measured here: RFP humanized mutant strains;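 first replicate; 0 = DMSO median and -100 = no signal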
An asterisk follows results filed as active; ? = inconclusive; . = not tested or not shown.

compound,Calb FLC,Beta cell apopt,Vif A3G,MLL AF4-AF9 inh,Bfl-1 A1 inh,rRNA inh HTS,rRNA inh HTS OD600,rRNA inh HTS RFP,T cruzi inh,RanGTP-Impb inh
C=C(CC[C@@H](O)C(C)(C)O)[C@H]1CC[C@]2(C)[C@@H]1CCC1[C@@]3(C)CCC(=O)C(C)(C)C3CC[C@]12C (stereo partly specified),.,10,.,2.6,0.6,3,3,-1.3,.,.
O=C(c1cccc([N+](=O)[O-])c1)N1CCN(c2ncccn2)CC1,-2,-3,-9%,-0.1,-0.6,22,15,-3.5,-5,13
CCCn1nc(C(=O)NC2CCCc3ccccc32)c2ccccc2c1=O (stereo unspecified),17,6,14%,5.1,0.2,10,-1,-0.1,19,1.7
Cc1c(C(=O)N2CCCC2)nnn1-c1nonc1N,0,-3,0%,.,-0.7,.,.,.,-14,-5.6
Cc1ccc(-c2nn3c(-c4ccco4)nnc3c3ccccc23)cc1S(=O)(=O)NCC1CCCO1 (stereo unspecified),9,24,?,.,-0.1,.,.,.,35,-2.6
N#Cc1ccccc1S(=O)(=O)N1CCN(C(=O)C2CCCC2)CC1,4,-1,2%,0.8,0.3,2,2,-1.0,-14,2.6
O=C(Nc1nc2ccccc2[nH]1)c1ccc(S(=O)(=O)N2CCOCC2)cc1,-3,0,-1%,-15,0.3,11,2,-9.9,-5,-4.2
CCS(=O)(=O)Nc1cccc(-c2nc3cccnc3s2)c1C,2,-5,-2%,-6.2,-0.9,-7,-14,-1.2,-4,1.8
CC(=O)c1ccc(S(=O)(=O)N2CCCC2)cc1,-1,-4,6%,.,-0.1,.,.,.,-6,6.8
CCC(C)Cn1c(C(C)O)nc2ccccc21 (stereo unspecified),0,-4,30%,.,1.1,.,.,.,-1,3.5
O=C(NCc1ccc(F)cc1)c1cc(S(=O)(=O)N2CCCCC2)c[nH]1,-4,6,.,-3.6,-0.2,-2,-8,2.2,-6,0.9
CN1Cc2c(N)cccc2C(c2ccccc2)C1 (stereo unspecified),.,.,5%,1.5,-0.5,.,.,.,17,-8.7
O=C(Nc1cccc(N2CCCC2)c1)c1cccs1,6,4,-4%,.,0.9,.,.,.,57*,4.4
O=c1[nH]c(Cc2cccs2)nc2ccccc12,27,-1,?,.,-0.4,.,.,.,-3,0.4
CCN(CC)C1=CC(=O)OC12CCCCC2,-7,14,-3%,.,0.1,19,12,2.0,-16,0.1
CC(C)C(=O)Nc1ccccc1Cc1ccccc1,14,-1,-8%,-2.1,0.2,30,18,0.0,-7,-3.7
CC(=O)N1CCN(C(=O)C2(NC(=O)Nc3cccc(F)c3)CCCCC2)CC1,-4,-4,.,-3.9,0.5,8,6,-4.6,3,6.8
O=C(Nc1c2c(nn1-c1ccc(F)cc1)CS(=O)(=O)C2)C12CC3CC(CC(C3)C1)C2,-4,5,-1%,.,1.4,.,.,.,0,6.9
COc1ccccc1OCC(=O)Nc1ccc(-c2nnc(-c3ccco3)o2)cc1,1,0,2%,-9.4,-1.5,8,12,-0.1,-19,1.3
NC(=O)C1CCN(CC(O)CSc2ccc(F)cc2)CC1 (stereo unspecified),-1,-3,-1%,.,0.9,.,.,.,-6,2.6
Cc1ccc(N=C2SCCCN2C(=O)c2cccc(N3C(=O)CCC3=O)c2)cc1Cl,-7,-20,-4%,-12,-0.1,4,8,-1.4,36,1.7
CN(C(=O)c1cccc(C(F)(F)F)c1)C1CCCc2ccccc21 (stereo unspecified),3,-2,.,0.7,0.9,.,.,.,4,0.6
COc1ccccc1Nc1ncc(C(=O)N2CCN(Cc3ccc(OC)c(OC)c3OC)CC2)c2ccccc12,21,-4,4%,-1.8,0.0,5,5,3.2,25,5.1
CCN(Cc1nc(-c2ccc(OC)c(OC)c2)no1)C(=O)c1ccoc1C,-11,-4,.,0.5,-0.6,1,-2,-0.1,-1,2.1
CC(C)Oc1cccc(C(=O)C2CCCN(C(=O)c3cncs3)C2)c1 (stereo unspecified),-6,-7,.,-1.2,0.4,4,2,-3.5,-15,-1.4
COc1ccc(CCN2C(=O)CC(Cc3cccc(C)c3)C2=O)cc1OC (stereo unspecified),1,5,26%,-5.3,0.0,-19,-22,-1.9,6,-3.2
COC(=O)c1c(NC(=O)CN2CCN(c3cccc(Cl)c3)CC2)sc(C)c1C,-5,-10,.,-0.1,-0.8,3,17,7.2,-6,5.6
COc1ccc(-c2ccc3oc(-c4ccsc4)cc(=O)c3c2)cn1,.,9,.,0.8,-5.6,5,2,0.6,.,.
CCOc1ccc(NC(=S)N(Cc2ccc(Cl)cc2)Cc2ccco2)cc1,-11,.,-2%,.,-0.5,.,.,.,19,-10
CC(C)C(=O)OCC(=O)NCc1ccccc1Cl,-4,-5,-2%,3.1,0.1,4,-2,1.9,-2,2.5
O=C(c1ccccc1)N1CCN(C2CCCCCC2)CC1,-2,0,1%,.,0.0,.,.,.,-1,1.4
CC(OC(=O)c1cc(S(=O)(=O)Nc2ccc(F)cc2)ccc1Cl)C(=O)Nc1ccc2c(c1)OCCO2 (stereo unspecified),-1,4,15%,.,1.4,.,.,.,10,3.6
CCOc1cc2[nH]c(=S)n(CCCC(=O)NCc3ccco3)c(=O)c2cc1OCC,-15,-1,-3%,-1.7,0.1,11,10,-5.0,3,2.6
COc1cc(OC)cc(C(=O)Nc2cc(NC(=O)c3ccco3)ccc2OC)c1,34,3,0%,.,0.7,.,.,.,18,-2.5
Cc1[nH]c2ccc(C(=O)N3CCN(c4cccc(Cl)c4)CC3)cc2c1C,.,0,.,-2.8,-0.1,-11,-47,16,-13,0.9
COC(=O)CC1C(=O)NCCN1C(=O)CSc1nc2ccccc2s1 (stereo unspecified),6,-19,-2%,-4.4,0.8,4,0,4.7,-10,1.1
COC(=O)c1cc(-c2ccccc2)n[nH]1,-4,2,-12%,.,-1.3,.,.,.,-7,-2.5
N#CCCn1cc(C(=O)NCc2ccccc2)c(-c2cccs2)n1,-9,-5,.,0.6,-0.2,5,6,1.0,3,-1.0
O=C(NCCOC(=O)c1ccc(Cl)c(S(=O)(=O)N2CCCCC2)c1)c1ccncc1,-1,0,7%,.,?,.,.,.,8,3.7
Cc1c(CN2CCC(Oc3ccc(C(=O)N4CCCCC4)cc3)CC2)cnn1C,-4,6,.,0.1,-0.3,2,7,0.1,-1,3.0
CCOC(=O)c1nnn(-c2nonc2N)c1CSc1nnc(N)s1,0,0,19%,-4.1,0.4,6,7,-9.0,-6,-0.5
O=C(NCc1ccccc1)c1c[nH]c2cc3c(cc2c1=O)OCCO3,22,-2,8%,.,1.3,.,.,.,1,5.9
Nc1nc(NCCN2CCOCC2)nc(NCc2ccccc2)c1[N+](=O)[O-],2,-2,2%,5.0,0.7,1,-6,-0.6,-7,0.9
CC(C)(C)c1cc(NC(=O)c2cc(F)c(F)c(F)c2F)no1,15,-4,-2%,.,0.0,.,.,.,-7,-3.8
C=CCOc1ccc(C2c3c(oc4ccccc4c3=O)C(=O)N2CCCN2CCOCC2)cc1 (stereo unspecified),?,2,10%,.,-0.2,.,.,.,6,6.4
Cc1cc(C)n(-c2ccc(C(=O)NCc3ccc(F)cc3)cc2)n1,-5,-4,-6%,0.9,-0.3,2,7,0.7,-1,-1.7
O=C(c1cc(-c2ccc(Cl)cc2Cl)on1)N1CCN(C(=O)c2ccco2)CC1,27,2,3%,.,0.0,.,.,.,2,-1.2
CCOC(=O)c1sc(NC(=O)CN2C(=O)NC3(CC(C)CC(C)(C)C3)C2=O)cc1C (stereo unspecified),6,1,-2%,7.2,0.3,-6,-32,8.5,59*,-2.3
COC(=O)CNC(=O)c1cccc(-c2ccc(OC)cc2)c1,-10,-6,.,-0.2,-2.5,-3,-2,-0.8,-5,-1.9
COc1ccc(C)cc1NC(=O)CCN1CCCC1,-12,-2,-2%,.,0.2,.,.,.,-1,1.6

Brought forward from above: two compounds; new compounds follow.
compound,Calb FLC,Beta cell apopt,Vif A3G,MLL AF4-AF9 inh,Bfl-1 A1 inh,rRNA inh HTS,rRNA inh HTS OD600,rRNA inh HTS RFP,T cruzi inh,RanGTP-Impb inh
COC(=O)CNC(=O)c1cccc(-c2ccc(OC)cc2)c1,-10,-6,.,-0.2,-2.5,-3,-2,-0.8,-5,-1.9
COc1ccc(C)cc1NC(=O)CCN1CCCC1,-12,-2,-2%,.,0.2,.,.,.,-1,1.6
CN(C)/C=N/N(C)c1ncccc1[N+](=O)[O-],1,-4,28%,.,0.2,13,2,1.7,-4,-1.2
CC1CCN(S(=O)(=O)c2ccc3nc(N4CCN(c5ccccc5)CC4)ccc3c2)CC1,-8,6,.,-0.6,0.7,2,9,-1.1,-11,-0.8
COc1ccccc1N1CCN(C(=O)CSc2nnc(NC(=O)C3CC3)s2)CC1,-13,-3,9%,.,-0.6,.,.,.,-6,-1.0
O=C(O)C1CCN(C(=O)c2ccccc2Cl)CC1,15,-7,-2%,.,0.6,.,.,.,0,4.9
O=C(/C=C/c1ccc(Cl)cc1Cl)N(Cc1ccccc1)C1CCS(=O)(=O)C1 (stereo unspecified),-2,0,26%,.,0.7,.,.,.,12,-1.3
CCn1c(SCC(=O)NC2CCCC2)nnc1-c1ccccn1,.,4,4%,-2.2,0.4,14,15,0.8,-8,.
COC(=O)CNC(c1ccccc1)c1cc(Br)ccc1NC(C)=O (stereo unspecified),-15,0,23%,-0.6,-0.5,11,3,-1.7,-5,-3.9
COc1cccc(OC)c1C(=O)Nc1ccc(CN2CCOCC2)cc1,2,-2,-2%,.,0.1,.,.,.,-11,8.9
CCC(C)[C@H](NC(=O)NC1CCCc2ccccc21)C(=O)O (stereo partly specified),0,-9,5%,.,-0.2,.,.,.,-25,-1.3
O=C(NCCCO)C(=O)Nc1cc2c3c(c1)CCC(=O)N3CCC2,-6,-3,.,-2.9,0.7,6,14,0.5,-15,0.8
CCCc1nc2c([nH]1)c(=O)n(C)c(=O)n2C,-3,4,1%,-1.9,0.5,12,18,1.8,-6,-4.8
O=C1NC(=O)/C(=C\c2ccc(N3CCOCC3)o2)N1,-2,.,.,-12,1.0,26,12,1.2,-12,-2.4

These rows are one share of the data. The share of hits here may be higher or lower than overall.
